Screens from PubChem BioAssay.
VCAM-1 inhibition = inhibitors of TNFa-induced VCAM-1 surface display, cell-based, plate reader, pooled HUVEC, TNFa stimulus (AID 454); HUVEC TNFa-induced VCAM-1 surface immunofluorescence, plate reader; numbers were filed only for top-ranked candidate wells; inhibition, % at 5 µM; 0.2% of 10,000 active;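 active = compound among top-ranked inhibitors of TNF-induced VCAM-1 adhesion protein staining, with the hit upheld by image or statistical review; inactive = the rest, including hits rejected on review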;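 note: 0% = TNFa with vehicle and 100% = cells without TNFa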
FPR ligand = human FPR ligands by binding competition, primary screen, cell-based, FPRL1 counter-screen, flow cytometry; AID 440, 2006; 0.74% of 24,000 active; FPR-expressing cells, fluorescent ligand binding; inhibition, %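 (tested at 6.7 µM)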;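 note: 0% = buffer wells and 100% = receptor blocker peptide wells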
Target sequence (P21462 whole entry, looked up): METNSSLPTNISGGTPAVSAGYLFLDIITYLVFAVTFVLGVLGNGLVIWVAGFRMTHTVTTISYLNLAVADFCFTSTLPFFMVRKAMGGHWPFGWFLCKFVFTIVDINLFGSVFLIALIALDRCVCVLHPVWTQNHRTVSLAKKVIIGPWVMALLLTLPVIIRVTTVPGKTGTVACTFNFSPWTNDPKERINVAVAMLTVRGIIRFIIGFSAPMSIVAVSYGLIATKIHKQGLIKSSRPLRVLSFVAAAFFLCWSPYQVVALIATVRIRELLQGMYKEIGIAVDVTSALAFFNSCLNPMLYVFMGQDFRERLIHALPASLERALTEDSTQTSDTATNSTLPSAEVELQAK
FPRL1 ligand = human FPRL1 ligands by binding competition, primary screen, cell-based, FPR counter-screen, flow cytometry. AID 441, 2006. N-formyl peptide receptor 2 (Homo sapiens), P25090. FPRL1-expressing cells, fluorescent ligand binding inhibition. 0.3% of 24,000 active. inhibition, %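 (tested at 6.7 µM)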;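 note: 0% = buffer alone and 100% = receptor blocker peptide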
Target sequence (P25090 whole entry, looked up): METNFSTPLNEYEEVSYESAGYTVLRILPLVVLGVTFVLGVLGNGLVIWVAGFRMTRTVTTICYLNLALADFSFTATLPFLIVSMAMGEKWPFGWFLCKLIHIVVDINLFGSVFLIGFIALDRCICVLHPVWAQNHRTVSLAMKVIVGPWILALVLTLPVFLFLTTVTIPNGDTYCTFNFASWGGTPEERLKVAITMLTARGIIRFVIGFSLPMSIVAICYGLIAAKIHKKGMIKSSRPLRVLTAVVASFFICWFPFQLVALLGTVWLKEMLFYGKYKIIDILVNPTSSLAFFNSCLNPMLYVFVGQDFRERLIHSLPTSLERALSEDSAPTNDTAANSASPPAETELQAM
VCAM-1 augmentation = enhancers of VCAM-1 display on endothelial cells, imaging, high-content imaging, pooled HUVEC, TNFa stimulus (AID 457). Pooled HUVEC, TNFa-induced VCAM-1 immunofluorescence imaging; hits of this screen are not shown here. calls only. 0.2% of 10,000 active;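 active = a top-ranked rise in VCAM-1 staining upheld on image or statistical review; inactive = the rest, including candidates rejected on review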;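 note: compounds tested at 5 µM in the well; cells exposed to compound for 24 hours before fixing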
VCAM-1 imaging = inhibitors of TNFa-induced VCAM-1 surface display, imaging, high-content imaging, pooled HUVEC, TNFa stimulus (AID 456). HUVEC TNFa-induced VCAM-1 surface expression, immunofluorescence imaging; numbers were filed only for top-ranked candidate wells. inhibition, % at 5 µM, or IC50 in µM where a hit was titrated. 0.2% of 10,000 active;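 active = top tenth filtered wells with inhibition above zero that passed visual or statistical confirmation; inactive = the rest, including hits rejected on review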;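 note: 0% = stimulated vehicle wells and 100% = unstimulated cells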
Starred values were filed as active, the others as inactive; i = inactive; ? = inconclusive; . = not tested or not shown.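 Rule for the calls, unless noted: active = mean above 30%; inconclusive = self-fluorescent; inactive = the rest.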 Some of the compounds tested; rates above refer to the full screens.

SMILES | VCAM-1 inhibition | FPR ligand | FPRL1 ligand | VCAM-1 augmentation | VCAM-1 imaging
COc1ccc(-c2cn3cc(C)ccc3n2)cc1OC | i | 4 | 2 | i | i
CN1CCN(C(CNS(=O)(=O)c2ccc(F)cc2)c2cccnc2)CC1 (configuration not stated) | . | -7 | 6 | . | .
Cn1c(=O)c(=O)n(C)c2cc(S(=O)(=O)N3CCCCC3)ccc21 | i | 1 | 2 | i | i
CCOc1nc(-c2ccncc2)nc2ccccc12 | i | -6 | -2 | i | i
COc1ccc(S(=O)(=O)N2CCN(Cc3ccc(Cl)cc3)CC2)cc1 | i | -2 | 4 | i | i
CCOC(=O)CCc1c(C)n(CC)c2ncnn2c1=O | . | -1 | -3 | . | .
O=C1CC(c2cccnc2)c2cc3c(cc2N1)OCCO3 (configuration not stated) | . | -1 | -2 | . | .
COc1cccc(-c2cc(C(=O)Nc3ccc(OC)c(OC)c3)no2)c1 | . | 2 | -1 | . | .
COC(=O)c1cccc(C(=O)Nc2cnc3ccccc3c2)n1 | . | 18 | -5 | . | .
Cc1ccc(CNC(=O)CN2CCN(Cc3ccc(Cl)cc3)C2=O)cc1 | . | 7 | 4 | . | .
Cn1c(C(=O)NC2CCCCCC2)cc2c(=O)n(C)c3ccccc3c21 | . | 6 | -4 | . | .
Cc1cnn(Cc2ccccc2)c1N | i | -5 | -2 | i | i
CCCSCCCNC(=O)Cn1cc2c(n1)CCCCC2 | . | -1 | 4 | . | .
COc1ccc(CCNC(=O)CN(C)S(=O)(=O)c2cccs2)cc1OC | . | 4 | 4 | . | .
O=C(c1cc(-c2ccc(F)cc2)on1)N1CCCC1 | . | 3 | -3 | . | .
CCN1C(=O)C2(C(C(=O)c3ccc(C)o3)=C(O)C(=O)N2CCCN2CCOCC2)c2ccccc21 (configuration not stated) | . | -7 | 3 | . | .
O=C(Nc1ccc(F)cc1)NC1CCN(Cc2nnnn2Cc2ccco2)CC1 | i | -8 | 2 | i | i
O=C(CSCc1cccc(F)c1)N1CCN(c2ccccc2)CC1 | i | 2 | 5 | i | i
O=C1c2cccnc2C(=O)N1Cc1ccccc1 | . | -5 | 4 | . | .
N#CCCn1ncc2ccccc21 | . | -6 | 10 | . | .
Cc1ccc(C)c(N2CCN(C(=O)CN(C)S(=O)(=O)c3ccc4c(c3)CCC(=O)N4)CC2)c1 | . | 1 | 2 | . | .
Cc1c(C(=O)NC2CC2)oc2ccc(S(=O)(=O)N3CCCCCC3)cc12 | i | 5 | 2 | i | i
CN1CCN(C(=O)NC2CCCN2S(=O)(=O)c2ccc(Cl)cc2)CC1 (configuration not stated) | i | -4 | -1 | i | i
Cc1cccc(Cc2c(C)nc3c(C(=O)NCc4ccco4)cnn3c2C)c1 | . | 5 | 0 | . | .
O=C(CCNS(=O)(=O)c1cccc2nonc12)NCc1cccs1 | . | -2 | -2 | . | .
Later entries.
SMILES | VCAM-1 inhibition | FPR ligand | FPRL1 ligand | VCAM-1 augmentation | VCAM-1 imaging
C=CCn1c(Br)nc2c1c(=O)[nH]c(=O)n2C | i | -1 | -2 | i | i
CC(=O)c1sc(N2C(=O)c3oc4ccccc4c(=O)c3C2c2ccc(C)o2)nc1C (configuration not stated) | . | 7 | -1 | . | .
N#Cc1nc(N2CCCC2)nc(N2CCCC2)n1 | . | 11 | 6 | . | .
Cc1cc(C)n(-c2ccc3cccc(NS(C)(=O)=O)c3n2)n1 | i | -9 | -2 | i | i
COCCn1c(=O)[nH]c2cc(C(=O)NCCN3CCN(c4ccc(OC)cc4)CC3)ccc2c1=O | . | -3 | 3 | . | .
COc1ccc(S(=O)(=O)Cc2ccc(C(=O)N3CCN(c4ccccc4F)CC3)o2)cc1 | . | 0 | 2 | . | .
Nc1nnc(SCC(=O)N2CCN(c3ccccc3)CC2)n1-c1ccccc1 | i | 0 | -6 | i | i
COc1cccc(CNC(=O)C2CCCN(S(=O)(=O)c3c(C)n[nH]c3C)C2)c1 (configuration not stated) | . | -1 | -7 | . | .
CCOC(=O)N1CCC(NC(=O)CCC(=O)N2CCOc3ccccc32)CC1 | . | -3 | 5 | . | .
Cc1ccc(C)c(N2CCN(C(=O)C3CCCN(S(=O)(=O)c4cnc[nH]4)C3)CC2)c1 (configuration not stated) | . | 2 | -2 | . | .
CCc1nnc(NC=C2C(=O)OC(C)(C)OC2=O)s1 | . | 1 | -1 | . | .
Cc1cc(NC(=O)CSc2nnc(COc3cccc(C)c3C)n2Cc2ccco2)no1 | i | -10 | 0 | i | i
O=C(CSc1nnc2scc(-c3ccccc3)n12)c1ccc2c(c1)OCCO2 | . | 7 | 2 | . | .
CCCS(=O)(=O)N1CCCC(C(=O)NCCN2CCOCC2)C1 (configuration not stated) | . | -5 | 1 | . | .
COc1ccc(CC(=O)NC(CC(=O)O)c2ccc(OC)cc2)cc1 (configuration not stated) | . | 3 | 1 | . | .
COc1cccc(N2C(=O)CC(N3CCN(S(=O)(=O)c4ccccc4)CC3)C2=O)c1 (configuration not stated) | . | -1 | 0 | . | .
CCC(C(=O)NC(C)CCc1ccco1)n1nc(C)n2c(cc3occc32)c1=O (configuration not stated) | i | 2 | 3 | i | i
S=c1[nH]nc(C23CC4CC(CC(C4)C2)C3)n1Cc1ccco1 | . | 6 | -1 | . | .
O=S(=O)(NCCCN1CCN(c2ccccc2F)CC1)c1cccc2cccnc12 | . | 3 | 0 | . | .
Cc1cccc(NC(=O)c2ccc(S(=O)(=O)N(C)C)cc2)n1 | i | 17 | 1 | i | i
O=C(NCC(=O)N1CCCC1C(=O)O)OC1CCCCC1 (configuration not stated) | . | -3 | -7 | . | .
CCOc1ccc(/C=c2\sc3nc(-c4ccco4)nn3c2=O)cc1OCC | . | 17 | 0 | . | .
CC1(C)CC(=O)C(/C=N/c2ncccc2C(=O)O)=C(O)C1 | . | -7 | 2 | . | .
Cc1[nH]c(=O)[nH]c(=O)c1S(=O)(=O)NCCOC12CC3CC(CC(C3)C1)C2 | . | -3 | -2 | . | .
COc1ccccc1C(=O)n1nc(-c2ccccc2)nc1N | i | 5 | -3 | i | i
The list continues.
SMILES | VCAM-1 inhibition | FPR ligand | FPRL1 ligand | VCAM-1 augmentation | VCAM-1 imaging
COc1ccc(NC(=O)c2ccc(-n3nc(C)c[n+]3[O-])cc2)cc1 | . | 11 | -1 | . | .
CCn1c(=O)cc(OCC(=O)Nc2ccc(Cl)cn2)c2ccccc21 | . | 1 | -1 | . | .
CC#CCCCC(=O)Nc1cccc(C(=O)O)c1 | . | 5 | -2 | . | .
CCOC(=O)c1cc(CC)sc1NC(=O)CCC(=O)O | i | -1 | -2 | i | i
CSc1cccc(NC(=O)C2CCCN2S(=O)(=O)c2ccc3c(c2)CCC(=O)N3)c1 (configuration not stated) | i | -8 | 0 | i | i
Cc1nnc(NC(=O)CSc2nnc(-c3ccc(S(=O)(=O)N4CCCC4)cc3)n2C)s1 | i | -12 | -2 | i | i
COC(=O)C1(C#N)C(c2ccccc2)C1(C(=O)OC)C(=O)OC (configuration not stated) | i | -4 | 1 | i | i
c1ccc2c(c1)ccc1nnc(-c3ccc4c(c3)OCO4)n12 | i | 7 | -6 | i | i
CC(=O)Nc1ccc(N2CCN(C(C)=O)CC2)cc1 | . | 3 | 3 | . | .
O=C(O)c1cc2nc(-c3ccc(F)cc3)cc(C(F)(F)F)n2n1 | i | 4 | 5 | i | i
Cn1cc(NC(=O)c2cc(NC(=O)c3cc(NC=O)cn3C)cn2C)cc1C(=O)NCCC(=N)N | i | 2 | 0 | i | i
COc1cc(C2c3c(n[nH]c3C)C(=O)N2c2ccc(C)cc2)ccc1O (configuration not stated) | i | -6 | -3 | i | i
CCn1c(CSc2nc(C)cc(C)n2)nnc1SCC(=O)Nc1ccccc1 | i | 2 | 1 | i | i
Cc1cc(Nc2ccc(Br)cc2F)n2nc(C)nc2n1 | . | -4 | -1 | . | .
Cc1cnc(NC(=O)CSc2nc3ccccc3c(=O)[nH]2)s1 | i | 2 | 3 | i | i
O=C(NCC(c1cccnc1)N1CCOCC1)C1CCCCC1 (configuration not stated) | . | -17 | -11 | . | .
COc1cc(OC)nc(NC(=O)NS(=O)(=O)c2ccc(OC(F)(F)F)cc2)n1 | . | 0 | -3 | . | .
CCOC(=O)Cc1nnc(NC(=O)c2ccccc2OCC)s1 | i | 2 | -9 | i | i
CC1Cc2ccccc2N1C(=O)CCNS(=O)(=O)c1ccc2c(c1)CCC(=O)N2 (configuration not stated) | . | -10 | -8 | . | .
COCCNC(=O)COc1ccc(Nc2ccccc2)cc1 | . | -6 | -4 | . | .
CN(CCC#N)C(=O)COC(=O)c1ccc(Cl)c(S(N)(=O)=O)c1 | i | 1 | -1 | i | i
Cn1c(=O)c2nc(Cl)n(Cc3ccc(Cl)cc3Cl)c2n(C)c1=O | i | -4 | 3 | i | i
COc1ccc(Cl)cc1S(=O)(=O)n1cnc2ccccc21 | i | -8 | 0 | i | i
CC(=O)c1cccc(NC(=O)c2cnn3ccccc23)c1 | . | -4 | 2 | . | .
CCn1cc(/C=C(/C#N)S(=O)(=O)c2ccccc2)cn1 | i | -6 | 4 | i | i

Part of the list above, set out differently.
Each structure is followed by: VCAM-1 inhibition, FPR ligand, FPRL1 ligand, VCAM-1 augmentation, VCAM-1 imaging
Cc1nnc(NC(=O)CSc2nnc(-c3ccc(S(=O)(=O)N4CCCC4)cc3)n2C)s1
    i, -12, -2, i, i
COC(=O)C1(C#N)C(c2ccccc2)C1(C(=O)OC)C(=O)OC (configuration not stated)
    i, -4, 1, i, i
c1ccc2c(c1)ccc1nnc(-c3ccc4c(c3)OCO4)n12
    i, 7, -6, i, i
CC(=O)Nc1ccc(N2CCN(C(C)=O)CC2)cc1
    ., 3, 3, ., .

The listing continues.
SMILES | VCAM-1 inhibition | FPR ligand | FPRL1 ligand | VCAM-1 augmentation | VCAM-1 imaging
COc1cccc(NC(=O)Cn2cc3c(n2)CCCCC3)c1 | . | 6 | -1 | . | .
COCON1C(=O)CN(C(C)=O)C1c1ccc(Cl)cc1Cl (configuration not stated) | . | 1 | -5 | . | .
CC(c1ccco1)N(C(=O)COc1ccc(Cl)cc1Cl)c1ccccn1 (configuration not stated) | i | 2 | 3 | i | i
O=C(Cn1cccc1)Nc1ccc(F)cc1F | . | 8 | 9 | . | .
Cc1c(C(=O)NCC2CCCO2)oc2ccc3c(c12)C(=O)CC(C)(C)O3 (configuration not stated) | . | -2 | 1 | . | .
Cc1cc2c(cc(C(=O)OCC(=O)NCc3cccs3)n2C(C)C)o1 | i | -1 | 1 | i | i
COc1ccc(C2c3c(oc4ccccc4c3=O)C(=O)N2c2ccccn2)cc1 (configuration not stated) | . | -2 | 0 | . | .
Cn1cc(CN2CCc3ccccc3C2)c2ccccc21 | i | 2 | -2 | i | i
O=C(c1ccc(NC2=NC3CS(=O)(=O)CC3S2)cc1)N1CCN(C(=O)c2ccco2)CC1 (configuration not stated) | . | -2 | 0 | . | .
CCOC(=O)N1CCC(NC(=O)CSCc2nc(-c3ccc(OC)c(OC)c3)oc2C)CC1 | . | -2 | -2 | . | .
O=C(Nc1ccc(F)cc1F)NC1CC(=O)N(Cc2ccccc2)C1 (configuration not stated) | i | -2 | -1 | i | i
COc1ccc(S(=O)(=O)N2CCC(C(=O)c3ccc4c(c3)OCCO4)CC2)cc1 | i | ? | -15 | i | i
CC1(C(=O)NC2CCCC2)CCC(=O)N1CCC1=CCCCC1 (configuration not stated) | . | -5 | 9 | . | .
CCCNC(=O)C(Cc1ccccc1)NS(=O)(=O)c1cccc2nsnc12 (configuration not stated) | . | -4 | 1 | . | .
O=C(O)c1ccc(COc2c(F)c(F)cc(F)c2F)cc1 | i | -4 | -5 | i | i
CCNC(=O)CC1C(=O)N(c2ccccc2)C(=O)N1Cc1ccc(OC)cc1 (configuration not stated) | i | 1 | -1 | i | i
O=C1c2cccnc2C(Nc2ccc(S(=O)(=O)N3CCCCC3)cc2)N1Cc1ccccc1 (configuration not stated) | . | -2 | -4 | . | .
CCOC(=O)C1CCCN(C(=O)C2CCN(S(=O)(=O)CC)CC2)C1 (configuration not stated) | . | -10 | 5 | . | .
CN(C)c1ccc(C2N(c3ccc(Cl)cc3)C(=O)C3CCCN32)cc1 (configuration not stated) | . | -4 | -4 | . | .
COc1ccc2[nH]c(C)c(C(=O)CN(C)C)c2c1 | . | 2 | 17 | . | .
Nc1nc(Cn2nnc(-c3ccccc3F)n2)nc(N2CCOCC2)n1 | . | 0 | 6 | . | .

Two records picked at random from those above:
SMILES | VCAM-1 inhibition | FPR ligand | FPRL1 ligand | VCAM-1 augmentation | VCAM-1 imaging
COc1cccc(NC(=O)Cn2cc3c(n2)CCCCC3)c1 | . | 6 | -1 | . | .
COc1ccc(C2c3c(oc4ccccc4c3=O)C(=O)N2c2ccccn2)cc1 (configuration not stated) | . | -2 | 0 | . | .
